# Source: PubChem BioAssay (ICCB-Longwood Screening Facility, Harvard Medical School)
# GIV Gai3 FP: inhibitors of GIV GBA-motif binding to rat Galpha-i3; P08753; Galpha-i3/FITC-GIV peptide fluorescence polarization, 90 min; hits give low values; scaled: aluminum fluoride 0%, vehicle 100%; percent of control (FP), % (no concentration beside the values); actives 0.42% (n = 210,000); AID 1224905;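 active = replicate mean at 85% of control or lower, very high polarization wells dropped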;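 also: wells of about 15 µL received 100 nL stock; the first replicate is given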
# Target sequence (P08753 whole entry, looked up): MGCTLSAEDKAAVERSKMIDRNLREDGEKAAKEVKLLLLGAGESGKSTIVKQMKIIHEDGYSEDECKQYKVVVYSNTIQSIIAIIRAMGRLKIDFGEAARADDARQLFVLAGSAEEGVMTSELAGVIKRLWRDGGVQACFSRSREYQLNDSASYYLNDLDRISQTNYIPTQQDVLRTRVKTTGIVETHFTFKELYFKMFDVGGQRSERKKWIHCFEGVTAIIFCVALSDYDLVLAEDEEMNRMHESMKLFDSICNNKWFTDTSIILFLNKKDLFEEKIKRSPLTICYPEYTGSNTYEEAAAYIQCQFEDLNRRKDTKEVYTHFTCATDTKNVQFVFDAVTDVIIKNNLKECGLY
# * hit, by the source's call. Only part of the results is shown; count on the stated rates, not on these rows.
GIV Gai3 FP | canonical_smiles
102 | COc1ccc(NS(=O)(=O)c2cc(-c3cc(C(F)(F)F)on3)sc2C)cc1OC
107 | CCOc1ccc(NC(=O)c2ccc(F)c(S(=O)(=O)N3CCN(c4cccc(Cl)c4)CC3)c2)cc1
102 | O=C(CCC(=O)N1CCc2cc(S(=O)(=O)N3CCCCC3)ccc21)N1CCCC1
106 | COc1ccc(N2CC(C(=O)OCCN(C3=NS(=O)(=O)c4ccccc43)c3ccccc3)CC2=O)cc1 (centres undefined)
100 | Cc1ccc(C(=O)Nc2ccc(-n3cccc(C(=O)NCCC(C)C)c3=O)cc2)cc1
102 | Cc1nc(OCC(=O)N2CCOCC2)c2c(-c3ccccc3)noc2n1
126 | COC(=O)C1=C(C)NC(C)=C(C(=O)OC)C1c1cn(-c2ccccc2)nc1-c1ccc(OC)c(Cl)c1
105 | O=C(Nc1ccc2c(c1)OCCO2)C(c1ccccc1)c1ccccc1
112 | CCOC(=O)C1CCCN(S(=O)(=O)c2ccc(F)c(C(=O)Nc3ccc(Br)cc3F)c2)C1 (centres undefined)
103 | Clc1cccc(-c2noc3ncnc(NCc4ccc5c(c4)OCO5)c23)c1
104 | O=S(=O)(NC1CCCC1)c1ccc(-c2cnc(C3CC3)o2)s1
101 | CCc1ccc(C2Nc3ccc4ncccc4c3C3=C2C(=O)CCC3)cc1 (centres undefined)
112 | COc1ccc(NC(=O)CSc2nc(N3CCCCC3)nc3ccccc23)cc1
100 | CC(C)CC(=O)Nc1cnc(N2CCNCC2)c(C(=O)N(CC(C)C)CC(C)C)c1
108 | CC(=O)Nc1cc(Cl)ccc1OCc1cc(=O)n2c(C)csc2n1
102 | COCCNC(=O)N1CCC2(C1)C(=O)Nc1ccccc12 (centres undefined)
98 | O=C(O)CN1C(=O)/C(=C2\Sc3ccccc3N2CCCS(=O)(=O)O)SC1=S
151 | COc1ccc(Nc2ncnc3sc(C(=O)O)c(C)c23)cc1OC
101 | COc1ccc(OC)c(-n2cnc3cc(C(=O)NCCc4ccc(Cl)cc4)ccc32)c1
115 | N#Cc1c(-c2ccccc2)cc(-c2ccccc2)nc1SCC(=O)Nc1ccc(S(N)(=O)=O)cc1
111 | CCCCN(CC)C(=O)CSc1nc2cc(C(=O)NCCOC)ccc2c(=O)n1Cc1ccco1
113 | CCOC(=O)C1=C(N)n2c(s/c(=C\c3ccc(F)cc3)c2=O)=C(C#N)C1c1ccc(F)cc1 (centres undefined)
100 | O=C(Cn1c(=O)n2nc(-c3ccccc3)nc2c2ccccc21)c1cccc(Cl)c1
107 | CCC1(C(=O)c2ccccc2)C(c2ccc(Br)cc2)C1(C(=O)OC)C(=O)OC (centres undefined)
114 | CCOC(=O)C1=C(O)/C(=C/c2ccc(O)c(OCC)c2)SC1=Nc1ccccc1
105 | Cc1nc(N2CCC(C)CC2)c2c(C)c(C(=O)Nc3ccc4c(c3)OCCO4)sc2n1
256 | CCN(CC)c1ccc2cc(-c3nc(-c4ccccc4)cs3)c(=Nc3ccc(OC)cc3)oc2c1
97 | Cc1ccc(NS(=O)(=O)c2cc(-c3cc(C(F)(F)F)on3)sc2C)c(Cl)c1
104 | CCN(Cc1ccccc1)S(=O)(=O)c1ccc(F)c(C(=O)Nc2ccc(Cl)cc2)c1
105 | CC(=O)Nc1c(C)nn(-c2ccccc2)c1N1CCC(C(=O)NCc2ccccn2)CC1
101 | O=c1ccc(-c2ccc3c(c2)OCO3)nn1CCc1nc(-c2ccc(Cl)cc2)no1
122 | O=C1C(=O)N(c2nncs2)C(c2ccc(F)cc2)/C1=C(/O)c1ccc(F)cc1 (centres undefined)
97 | CN(C)c1ccc(-c2nc(-c3ccc(Br)cc3)c(-c3ccc(Br)cc3)[nH]2)cc1
106 | CCCS(=O)(=O)N1CCCN(C2=NS(=O)(=O)C(c3ccc(CC)cc3)=C2C)CC1
104 | CN(C)C(=O)c1cnn2c3c(cnc12)CCCCCC3
112 | Cc1ccc(S(=O)(=O)n2c([N+](=O)[O-])cnc2C)cc1
116 | O=C(c1cccc(-n2c(=S)[nH]c3cc(Cl)ccc3c2=O)c1)N1CCN(C(=O)c2ccco2)CC1
106 | O=C(C1CCCN(c2cnc3nccnc3c2)C1)N1CCC(N2CCCCC2)CC1 (centres undefined)
100 | CCN1CCN(c2ccc3nnc(C(C)C)n3n2)CC1
103 | CC1=NOC(C)(CNC(=O)NC2CCCCC2)C1 (centres undefined)
114 | Cc1c(N(CC(=O)N/N=C/c2ccccc2)S(=O)(=O)c2ccccc2)c(=O)n(-c2ccccc2)n1C
102 | Cc1ccc(-c2nc3ccccc3c3nnc(SCC(N)=O)n23)cc1
110 | O=C(Nc1ccc(N2CCOCC2)cc1)C1CCN(c2ncc(-c3ccc(F)cc3)cn2)CC1
107 | COc1ccc(-c2c(C)nn3c2NC(=O)CCC3=O)cc1S(=O)(=O)N1CCOCC1
104 | COc1ccccc1-c1noc2ncnc(NC3CC3)c12

# Given field by field: 2 of the compounds above.
> O=C1C(=O)N(c2nncs2)C(c2ccc(F)cc2)/C1=C(/O)c1ccc(F)cc1 (centres undefined)
  GIV Gai3 FP = 122

> CN(C)c1ccc(-c2nc(-c3ccc(Br)cc3)c(-c3ccc(Br)cc3)[nH]2)cc1
  GIV Gai3 FP = 97

# 4 entries from above, as labelled records.
> Cc1c(N(CC(=O)N/N=C/c2ccccc2)S(=O)(=O)c2ccccc2)c(=O)n(-c2ccccc2)n1C
  GIV Gai3 FP: 114

> O=C(C1CCCN(c2cnc3nccnc3c2)C1)N1CCC(N2CCCCC2)CC1 (centres undefined)
  GIV Gai3 FP: 106

> CC1=NOC(C)(CNC(=O)NC2CCCCC2)C1 (centres undefined)
  GIV Gai3 FP: 103

> O=C1C(=O)N(c2nncs2)C(c2ccc(F)cc2)/C1=C(/O)c1ccc(F)cc1 (centres undefined)
  GIV Gai3 FP: 122

# Next section.
GIV Gai3 FP | canonical_smiles
103 | Cc1ccc(NC(=O)C2CCCN(Cc3noc(-c4ccc(C)cc4)n3)C2)cc1 (centres undefined)
110 | COc1cccc(C2C(C#N)=C(N)Oc3n[nH]c(C)c32)c1OC(=O)N1CCOCC1 (centres undefined)
102 | COc1cc2[nH]c3c(SCC(=O)N4CCc5ccccc5C4)ncnc3c2cc1OC
97 | CCC(=O)N1CCc2cc(N3CC(C(=O)N(CC)CC)CC3=O)ccc21 (centres undefined)
100 | CCC(Sc1nc2n[nH]c(C)c2c(=N)n1-c1ccc(Br)cc1)C(=O)N1CCOCC1 (centres undefined)
104 | Clc1ccc(OCc2nn3cc(-c4ccccc4)c4c3n2CCCC4)c(Cl)c1
106 | CC(C)c1cc(C2CCCN2Cc2cc(F)ccc2F)no1 (centres undefined)
102 | Nc1nc(N)nc(CCCn2c(-c3nonc3N)nc3ccccc32)n1
105 | O=C(Nc1ccccc1SCc1nnc(-c2ccccc2)o1)c1ccc(F)cc1
99 | O=C(CN1C(=O)C2CCCN2C(=O)c2cc(F)ccc21)NCCCN1CCCCC1 (centres undefined)
108 | COCCOC(=O)C1=C(C)NC(C)=C(C(=O)OCCOC)C1c1ccc(-c2ccccc2[N+](=O)[O-])o1
106 | COc1ccc(NC(=O)c2sc3nc4c(c(-c5ccco5)c3c2N)CCCCC4)cc1
101 | CC(=O)N1CCCN(C(=O)NC(C)(C)C)CC1
103 | CCC(C)NC(=O)N1CCN(c2cc(-c3ccc(C)cc3)ncn2)CC1 (centres undefined)
104 | Cc1nc(-c2cccc(-c3noc(-c4ccsc4)n3)c2)cs1

# Arranged by value in GIV Gai3 FP (high to low): three of the compounds above.
molecule	GIV Gai3 FP
Cc1ccc(NC(=O)C2CCCN(Cc3noc(-c4ccc(C)cc4)n3)C2)cc1 (centres undefined)	103
Nc1nc(N)nc(CCCn2c(-c3nonc3N)nc3ccccc32)n1	102
CC(=O)N1CCCN(C(=O)NC(C)(C)C)CC1	101

# (more compounds)
GIV Gai3 FP | canonical_smiles
102 | CCOCCCNC(=O)c1ccc(-c2ccc(Oc3ccccc3OC)nn2)cc1
103 | CCCCOP(=O)(OCCCC)C(Nc1ccc(C(=O)O)cc1)c1ccccc1O (centres undefined)
98 | CCN1CCN(c2cc(C)nc3nc(CN4CCN(CC(C)C)CC4)nn23)CC1
107 | COC(=O)c1ccc(NC(=O)N2CCN(Cc3cc(=O)n4nc(-c5ccc(F)cc5)sc4n3)CC2)cc1
99 | Cc1ccc(C)c(NS(=O)(=O)c2c(C)sc(C)c2-c2n[nH]c(C)c2C)c1
104 | CC(=O)C1=NN(c2ccc(C)cc2)C2(S1)c1ccccc1C(c1ccc(Cl)cc1)=NN2c1ccccc1 (centres undefined)
103 | Cc1nn(-c2nc3ccccc3[nH]2)c2c1C(c1cc(F)cc(F)c1)CC(=O)N2 (centres undefined)
111 | Nc1c(C(=O)c2ccc(Br)s2)oc2ccccc12
110 | COc1ccc(NC(=O)N2CCC3(CC2)Nc2cc(OC)ccc2-n2cccc23)cc1
103 | CN=C1SC(CC(N)=O)C(=O)N1C (centres undefined)
110 | c1ccc(C2=NC(c3ccccc3)(c3ccccc3)c3ccccc3N2)cc1
115 | CCC(=O)Nc1ccc2nc(SCC(=O)Nc3c(C)n(C)n(-c4ccccc4)c3=O)sc2c1
106 | Cc1nc(CCNC(=O)[C@H]2CCCN2S(=O)(=O)c2cnn(C(F)F)c2C)cs1
111 | CCN(c1ccccc1)S(=O)(=O)c1ccc(F)c(C(=O)Nc2ccc(C)c(F)c2)c1
102 | O=C(Nc1cc(Cl)ccc1Oc1ccccc1)c1cc(Br)cc(Br)c1O
101 | O=C1COc2ccc(S(=O)(=O)N3CCc4ccccc43)cc2N1Cc1noc(C2CCC2)n1
109 | Cc1ccc(N2CCN(c3ccc(C)cc3)C2c2ccc(Cl)cc2)cc1
108 | CCOc1ccc(-c2[nH]nc3c2C(c2ccccc2OC)C(C#N)=C(N)O3)c(OCC)c1 (centres undefined)
99 | COC(=O)c1ccccc1NC(=O)CSc1ncnc2nc[nH]c12
114 | CCOC(=O)N1CCC(n2c(SCc3cc(F)ccc3F)nc3ccccc3c2=O)CC1
110 | Cc1ccc(S(=O)(=O)N2c3ccccc3C3N(c4ccc(SCC(=O)O)cc4)C2c2ccccc2N3S(=O)(=O)c2ccc(C)cc2)cc1
105 | COc1ccc(-n2cc(C(=O)Oc3ccc4cnccc4c3)c3ccccc3c2=O)cc1
102 | Cc1ccccc1C(=O)NCCOc1ccc(-c2ccccc2)nn1
92 | COc1ccc(/C=C2\N=C(c3ccc(Cl)cc3)N(c3ccc(C)cc3)C2=O)cc1OC
106 | CC1=C(C(=O)NC(C)C)SCCO1
102 | CC1CCN(S(=O)(=O)c2ccc(-c3ccno3)s2)CC1
99 | CCCNS(=O)(=O)c1cc(-c2cc(C(F)(F)F)on2)sc1C
110 | Cc1ccc(-n2nc3c(c2NC(=O)c2ccc(S(=O)(=O)N4CCCC4)cc2)CS(=O)(=O)C3)cc1
113 | Cc1cc(C)cc(NC(=O)N2CCCC2c2cc(C)no2)c1 (centres undefined)
103 | Cn1c(=O)c2nc(SCCC(=O)NCc3cc(F)cc(F)c3)n(C)c2n(C)c1=O

# Some of the entries so far, with bars between the fields.
compound | GIV Gai3 FP
Cc1ccc(S(=O)(=O)N2c3ccccc3C3N(c4ccc(SCC(=O)O)cc4)C2c2ccccc2N3S(=O)(=O)c2ccc(C)cc2)cc1 | 110
O=C1COc2ccc(S(=O)(=O)N3CCc4ccccc43)cc2N1Cc1noc(C2CCC2)n1 | 101

# Other compounds:
GIV Gai3 FP | canonical_smiles
105 | CCN(Cc1ccccc1)c1ccc(NC(=O)c2ccc(F)cc2)cc1C(=O)O
104 | Cc1nn(-c2ccccc2)c2sc(C(=O)Oc3ccccc3F)cc12
103 | O=C(NCc1ccc2c(c1)OCO2)c1ccc2ccnc(N3CCN(c4ccc(F)cc4)CC3)c2c1
109 | CCOC(=O)N1CCN(C(=O)c2sc3nc(C)nc(N4CCC(C)CC4)c3c2C)CC1
93 | Cc1cc(-c2c(C)sc(C)c2S(=O)(=O)N2CCCc3ccccc32)n[nH]1
96 | Cc1ccc(-n2nnc(C(=O)NC(C)C)c2-c2cccnc2)cc1
112 | Clc1cccc(C2Nc3cccc4cccc(c34)N2)c1Cl
108 | COc1cc(C2c3c(-c4ccccc4)n[nH]c3C(=O)N2c2ccc(Cl)cc2)ccc1O (centres undefined)
105 | CC1=C(C(=O)Nc2ccc(Cl)cc2)C(c2ccco2)C(C#N)=C(SCC(=O)Nc2ccc(Br)cc2)N1 (centres undefined)
98 | CCC(C)NC(=O)c1cc2c(s1)CN(C(C)C)C2 (centres undefined)
98 | Cc1cc(NS(=O)(=O)c2c(C)sc(C)c2-c2n[nH]c(C)c2C)ccc1Br
105 | Cc1ccc(-c2nc3cc(C(F)(F)F)cc(Br)c3nc2-c2ccc(C)cc2)cc1
101 | COc1ccc(CNC2=NCCNC23CCCC(C)C3)cc1 (centres undefined)
110 | CCn1cnc2sc(C(=O)N3CCCc4ccccc43)c(C)c2c1=O
114 | COc1ccc(C2C3=C(CCCC3=O)NC3=C2C(=O)c2ccccc23)cc1 (centres undefined)
105 | N#Cc1cc2c(nc1SCC(=O)NCCc1ccccc1)CCCCC2
101 | CNC(=O)Nc1ccc(C2(C(=O)NC3CCCC3)CCC2)cc1
99 | CC(C)(C)c1csc(-c2csc(S(=O)(=O)NCc3ccc(Cl)cc3)c2)n1
101 | CC(C)(C)NC1=NCCNC12CCN(S(=O)(=O)c1ccc3c(c1)CCCC3)CC2
114 | N=C1S/C(=C/c2ccc(-c3ccccc3[N+](=O)[O-])o2)C(=O)N1c1nonc1N
111 | CCN(CC)c1ncc2c(n1)CCC(C(=O)NC(C)c1cccs1)C2 (centres undefined)
107 | Cn1c(=O)c(N2CCC(NC(=O)Nc3ccc(Br)cc3)CC2)nc2ccccc21
107 | O=S(=O)(c1ccc(Cl)c(Cl)c1Cl)n1nnc2ccccc21
111 | Cc1c(N=Cc2ccc3c(c2)OCCO3)c(=O)n(-c2ccccc2)n1C
116 | CC1(C)CC(=O)C2=C(C1)NC1=C(C(=O)c3ccccc31)C2c1cccc(OC(=O)c2ccccc2F)c1 (centres undefined)
104 | O=C(C1=NN(c2ccccc2)C2(S1)c1ccccc1C(c1ccc(Br)cc1)=NN2c1ccccc1)c1ccccc1 (centres undefined)
96 | O=C(NC1CCCC1)c1ccc(-c2cc(N3CCCCC3)ncn2)cc1
110 | Cn1c(=O)c2c(nc3n2C(=O)CS3)n(C)c1=O
110 | COc1cc(OC)c(-c2nc3c4ccccc4c4ccccc4c3[nH]2)c(OC)c1
